# HTT promoter inh: Primary qHTS for Identification of Small Molecule Inhibitors of Huntingtin Promoter Activity; HEK293 HTT promoter firefly luciferase reporter (activity 0% = vehicle and -100% = no light), 24 h; Potency, µM (highest dose often 57.5 µM), for inactives: top-dose activity change, negative = inhibition, hits mostly inhibitors; 48,000 compounds, 0.93% hits; active means well fitted inhibition curve with a large enough effect; inconclusive means small, poorly fitted or top-dose-only effect; inactive means no such curve, though single readings can be large or run the other way; further: nearly all actives have a fitted effect of over 50% in size
#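 HEK293 Fluc reporter, 2,500 cells/well, 24 h pre-culture; cpds up to 57.5 uM final, 24 h 37 degrees C; Dual-Glo, 10 min RT; normalized vehicle = 0%, zero RLU = -100%.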
# PMP22 txn: Cell-based coincidence reporter assay to measure PMP22 gene transcription in S16 Pmp22-F2sN cells - Primary screen | Potency, µM (titrated, usually from 57.5 µM), inactives show top-dose activity change, negative = inhibition, usual class: inhibitors | 43,000 compounds, 2% hits | AID 1508649, 2021 | S16 Pmp22-F2sN Schwann cells (luciferase reporters placed in the Pmp22 gene), FLuc/NLuc coincidence luminescence, 24 h; active = clear falling dose curves in both reporters; inconclusive = both reporters move, but less clearly or upward; inactive = either reporter flat; the % is the NLuc reporter signal; further: on the % scale 0 is the no-effect control and ±100 the full control effect; some results filed as inactive show a strong effect at the top dose
#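 Luminescent read-out of sequential FLuc and NLuc signals from a reporter embedded in the Pmp22 3' UTR of S16 Schwann cells, taken after 24 h compound exposure at 37C; compounds reducing both signals score as inhibitors of expression.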
# Numbers without * were called inactive; ? = inconclusive; . = not tested or not shown; & = joins results of further samples; [ ] = another dose, or the depositor's remark. Potency means the concentration at half of the fitted maximal effect. A portion of the library; the hit share may differ from the screen's.
SMILES,HTT promoter inh,PMP22 txn
COc1cc([C@H]2Oc3cc([C@H]4Oc5cc(O)cc(O)c5C(=O)[C@@H]4O)ccc3O[C@@H]2CO)ccc1O,0%,.
CC[C@@H]1C(=O)N(C)c2cnc(Nc3ccc(C(=O)NC4CCC(N5CCN(CC6CC6)CC5)CC4)cc3OC)nc2N1C(C)C (stereo partly drawn),-3%,.
CCOc1ccc(NC(=O)Cn2cc(C(=O)c3cccs3)c3ccccc32)cc1,-16%,-30%
C=CCOc1cc(Cl)ccc1C(=O)NCCN(CC)CC,-6%,.
Cc1ccnc(NC(c2cccc(O)c2)c2ccc3ccc(C)nc3c2O)c1 (stereo not drawn),-6%,?
COc1cc(NC(=O)c2ccc(-c3ccc(Cl)cc3)o2)cc(OC)c1,?,.
O=C(CS(=O)Cc1ccco1)NC/C=C\COc1cc(CN2CCCCC2)ccn1 (stereo not drawn),-4%,.
CCCOC(C(=O)OC1CCN(C)CC1)(c1ccccc1)c1ccccc1,-13%,.
COC(=O)c1ccc2c(C(=Nc3ccc(N(C)C(=O)CN4CCN(C)CC4)cc3)c3ccccc3)c(O)[nH]c2c1,?,.
CCNC(=O)Nc1ccc(Oc2ncnc(N)c2C=NOC)cc1Cl,-5%,.
Cc1ccc(Nc2cc(-c3cccc(N4C(=O)c5ccccc5C4=O)c3)ncn2)cc1NS(C)(=O)=O,?,.
Nc1c2c(nc3ccccc13)CCCC2O (stereo not drawn),-2%,.
CC(=O)Nc1ncc([N+](=O)[O-])s1,14%,.
Nc1ncnc2nc[nH]c12,15%,.
CC(C)c1cnn2c(NCc3ccccc3)cc(N[C@@H](CO)[C@H](O)CO)nc12,?,.
C#CCC(Cc1cnc2nc(N)nc(N)c2n1)c1ccc(C(=O)N[C@@H](CCC(=O)O)C(=O)O)cc1 (stereo partly drawn),?,.
CCn1cc(C(=O)O)c(=O)c2cc(F)c(N3CCNCC3)nc21,1%&7%,.
O=C(Nc1ccc(Cl)c(Cl)c1)C1CC1,0%,.
CCNC(=O)Nc1ccc(-c2nc3c(c(N4CCOC[C@H]4C)n2)CCN(C2COC2)C3)cc1,?,.
CC(=O)Nc1ccc(S(=O)(=O)Nc2cc(C)on2)cc1,10%,.
C/C(=C(\CCO)SS/C(CCO)=C(\C)N(C=O)Cc1cnc(C)nc1N)N(C=O)Cc1cnc(C)nc1N,6%,.
CCCCCCCCCCCCCCNCCO,-9%,.
CNc1c2c(nn1C)CCCC2,10%,.
CCN1CCN(Cc2ccc(-c3cc4c(N[C@H](C)c5ccccc5)ncnc4[nH]3)cc2)CC1,?,.
COc1ccc(/C=N/NC(=O)c2ccncc2)cc1OC,7%,.
Cc1cc(C)cc(OCC2CNC(=O)O2)c1 (stereo not drawn),-6%,.
Cc1cccc(C)c1NC(=O)CN(CC(=O)O)CC(=O)O,18%,.
Cc1c(F)cc2c(=O)c(C(=O)O)cn3c2c1CCC3C (stereo not drawn),0%,.
CN(C)CCOc1ccccc1Cc1ccccc1,2%,.
C=CCNc1nc(NCC=C)nc(N2CCN(C(c3ccc(F)cc3)c3ccc(F)cc3)CC2)n1,-24%,.
CCc1cncnc1N1CCN(Cc2nc3ccc(C(F)(F)F)cc3[nH]2)CC1,?,.
C/C(=N\O)c1ccc(OCC(=O)N2CCCCC2)cc1,11%,.
COc1cc(Nc2ncc3c(n2)-c2ccc(Cl)cc2C(c2c(F)cccc2OC)=NC3)ccc1C(=O)O,?,.
O=C(Nc1ccccc1Br)N[C@@H]1CCN(c2ccc(C(F)(F)F)cn2)C1,-4%,.
Cc1[nH]nc2ccc(-c3cncc(OC[C@@H](N)Cc4ccccc4)c3)cc12,?,.
CNC(=O)c1ccccc1Nc1nc(Nc2ccc(N3CCOCC3)cc2OC)ncc1Cl,?,.

# Ordered by formula weight (ascending): some entries from above
SMILES,HTT promoter inh,PMP22 txn
CN(C)CCOc1ccccc1Cc1ccccc1,2%,.
C/C(=N\O)c1ccc(OCC(=O)N2CCCCC2)cc1,11%,.
COc1ccc(/C=N/NC(=O)c2ccncc2)cc1OC,7%,.
Cc1[nH]nc2ccc(-c3cncc(OC[C@@H](N)Cc4ccccc4)c3)cc12,?,.
CCc1cncnc1N1CCN(Cc2nc3ccc(C(F)(F)F)cc3[nH]2)CC1,?,.
C=CCNc1nc(NCC=C)nc(N2CCN(C(c3ccc(F)cc3)c3ccc(F)cc3)CC2)n1,-24%,.

# Record cards, from the list above. Order of screens: HTT promoter inh	PMP22 txn
# CN(C)CCOc1ccccc1Cc1ccccc1 is listed as 2%	.
# O=C(Nc1ccccc1Br)N[C@@H]1CCN(c2ccc(C(F)(F)F)cn2)C1 is listed as -4%	.
# COc1cc(Nc2ncc3c(n2)-c2ccc(Cl)cc2C(c2c(F)cccc2OC)=NC3)ccc1C(=O)O is listed as ?	.
# CNC(=O)c1ccccc1Nc1nc(Nc2ccc(N3CCOCC3)cc2OC)ncc1Cl is listed as ?	.
# COc1ccc(/C=N/NC(=O)c2ccncc2)cc1OC is listed as 7%	.

# The list goes on:
SMILES,HTT promoter inh,PMP22 txn
c1cncc(CN2CCC(n3ncc4c(N5CCOCC5)nc(-c5ccc6[nH]ccc6c5)nc43)CC2)c1,?,.
Cn1c(=O)n(-c2ccc(C(C)(C)C#N)cc2)c2c3cc(-c4cnc5ccccc5c4)ccc3ncc21,?,.
C[C@@H](N)c1ccc(C(=O)Nc2ccnc3[nH]ccc23)cc1,-22%,.
CC(C)(C)c1ccc(C(=O)CCCCl)cc1,25%,.
CC[C@]1(O)C[C@@H]2CN(CCc3c([nH]c4ccccc34)[C@@](C(=O)OC)(c3cc4c(cc3OC)N(C)[C@H]3[C@@](O)(C(=O)OC)[C@H](OC(C)=O)[C@]5(CC)C=CCN6CC[C@]43[C@@H]65)C2)C1,-29%&-28%,.
OC1CCC(Nc2ncc3nc(Nc4c(F)cc(F)cc4F)n([C@@H]4CCOC4)c3n2)CC1 (stereo partly drawn),-5%,.
O=C(O)CNC(=O)c1ccccc1,1%,.
CCc1nc(-c2cccc(C)c2)c(-c2ccnc(NC(=O)c3ccccc3)c2)s1,?,.
O=C(NC[C@H](O)CO)c1ccncc1Nc1ccc(I)cc1F,-15%,.
CCC(=O)O[C@]1(C(=O)SCF)[C@H](C)C[C@H]2[C@@H]3C[C@H](F)C4=CC(=O)C=C[C@]4(C)[C@@]3(F)[C@@H](O)C[C@@]21C,-2%&8%,.
OCc1ccccn1,-10%,.
CCc1c2c(nc3ccc(OC(=O)N4CCC(N5CCCCC5)CC4)cc13)-c1cc3c(c(=O)n1C2)COC(=O)[C@]3(O)CC,-29%&-22%,.
CC(C)(C)c1nnc(NS(=O)(=O)c2ccccc2)s1,-6%,.
Cc1cccc(Nc2cc(Cl)nc(SCC(=O)O)n2)c1C,-5%,.
CO/N=C(\C(=O)O)c1csc(NC(=O)CCl)n1,-1%,.
NCCNC(=O)c1ccc(Cl)cn1,7%,.
CCCCOc1ccc(CC(=O)NO)cc1,-12%&-8%,.
CC(=O)Oc1ccc2c(c1)CC[C@@H]1[C@@H]2CC[C@]2(C)[C@@H](O)CC[C@@H]12,-5%,.
CCOC(=O)NNc1nncc2ccccc12,13%,.
O=C(O)CCCC[P+](c1ccccc1)(c1ccccc1)c1ccccc1,8%,.
CCOC(=O)CN1CCCC1=O,-2%,.
C/C=C/C=N/NC(=O)c1ccncc1,7%,.
CN[C@@H]1C[C@H]2O[C@@](C)([C@H]1OC)n1c3ccccc3c3c4c(c5c6ccccc6n2c5c31)C(=O)N[C@H]4O,?,.
CCC(Sc1nc2ccccc2c2nc(CCn3cncc3C)nn12)C(=O)Nc1cccc(OC)c1 (stereo not drawn),-17%,?

# Of the compounds above, these contain a tert-butyl group:
SMILES,HTT promoter inh,PMP22 txn
CC(C)(C)c1ccc(C(=O)CCCCl)cc1,25%,.
CC(C)(C)c1nnc(NS(=O)(=O)c2ccccc2)s1,-6%,.

# (continued)
SMILES,HTT promoter inh,PMP22 txn
Cc1cccc2nc(-c3ccccn3)c(Nc3ccccc3)n12,?,?
Cc1ccccc1Cc1c(C)nc2c(-c3ccccc3)c(C)[nH]n2c1=O,?,?
COC(=O)N1CCN(Cc2cccc(NC(=O)Nc3ccc(C)nc3)c2F)CC1,-18%,.
Cc1ccc(NC(=O)Cn2c(=O)n(CCC(=O)N3CCc4ccccc4C3)c(=O)c3ccccc32)c(C)c1,-18%,1%
COc1ccc(OCC(=O)Nc2cc(-c3nc4ccccc4s3)ccc2C)cc1,67%[activator],-25%
CC1(C)OC(=O)Nc2ccc(Br)cc21,1%,.
O=C(O)Cn1nnc(-c2cc(N3CCC(Oc4cc(F)ccc4Br)CC3)no2)n1,?,.
CN(C)C(=O)[C@H](O)[C@H](Cc1ccccc1)NC(=O)c1cc2cc(Cl)ccc2[nH]1,?,.
O=C(O)C1(Cc2cccc(Nc3nccs3)n2)CCC(Oc2cccc(Cl)c2F)CC1 (stereo not drawn),-8%,.
O=C(Nc1ccc(C(=O)O)c(O)c1)c1ccccc1,4%,.
CC(C)OP(=O)(CP(=O)(OC(C)C)OC(C)C)OC(C)C,-2%,.
NC(=NCc1ccccc1)NC(=O)c1nc(Cl)c(N)nc1N,?,.
COc1ccc(CNC(=O)Nc2ccc3c(c2)N(C)C(=O)c2ccccc2S3)cc1OC,?,7%
CCCCCCCCCCCCCCCCCC(=O)O,15%,.
Cc1ccc(NC(=O)Nc2cc(C(F)(F)F)ccc2F)cc1Nc1ccc2c(c1)NC(=O)C2=Cc1ccc[nH]1,?,.
NNC(=O)CP(=O)(c1ccccc1)c1ccccc1,-7%,.
NC(N)=NC(=O)Cc1c(Cl)cccc1Cl,-11%,.
CNC1CCCN(c2c(F)cc3c(=O)c(C(=O)O)cn(C4CC4)c3c2OC)C1 (stereo not drawn),0%&6%,.
COc1ccc(CN2CCN(C(c3ccc(F)cc3)c3ccc(F)cc3)CC2)c(OC)c1OC,-26%,.
CC(C)[C@@H]1CC[C@@H](C)CC1=O,9%,.
Cc1ccc(Nc2nc3ccccc3c3nnc(C)n23)c(C)c1,7%,-19%
COc1ccc(S(=O)(=O)N2c3ccc(Cl)cc3[C@@](O)(c3ccccc3Cl)[C@H]2C(=O)N2CCC[C@@H]2C(N)=O)cc1OC,-13%,.
Cc1cccc(NC(c2ccccc2F)c2ccc3ccc(C)nc3c2O)n1 (stereo not drawn),3%,?
Cc1cc2c(cc1CC(=O)c1sccc1S(=O)(=O)Nc1onc(C)c1Cl)OCO2,-1%,.

# Quoted at random: four entries already listed.
SMILES,HTT promoter inh,PMP22 txn
CNC1CCCN(c2c(F)cc3c(=O)c(C(=O)O)cn(C4CC4)c3c2OC)C1 (stereo not drawn),0%&6%,.
COc1ccc(CN2CCN(C(c3ccc(F)cc3)c3ccc(F)cc3)CC2)c(OC)c1OC,-26%,.
Cc1cc2c(cc1CC(=O)c1sccc1S(=O)(=O)Nc1onc(C)c1Cl)OCO2,-1%,.
Cc1ccc(Nc2nc3ccccc3c3nnc(C)n23)c(C)c1,7%,-19%

# Continued.
SMILES,HTT promoter inh,PMP22 txn
COc1ccc2nc(NC(=O)Nc3ccccc3)sc2c1,20%,.
CC(=O)c1c(C)c2cnc(Nc3ccc(N4CCNCC4)cn3)nc2n(C2CCCC2)c1=O,?,.
CC(C)n1nc(-c2ccc3oc(N)nc3c2)c2c(N)ncnc21,?,.
NC1(c2ccc(-c3nc4ccn5c(=O)[nH]nc5c4cc3-c3ccccc3)cc2)CCC1,?,.
CCCCC1C(=O)N(c2ccccc2)N(c2ccccc2)C1=O,-2%,.
CCCCCCCCCCCCCC[N+](C)(C)Cc1ccccc1,?,.
O=C(NN1CCCC1)NS(=O)(=O)c1ccc(Cl)cc1,1%,.
CCCCCCc1ccc(O)cc1O,6%,.
O=C(O)c1ccc2c(c1)nc(Nc1cccc(Cl)c1)c1ccncc12,?,.
Cc1ccc2nc(NCCN)c3ncc(C)n3c2c1,?,.
Cc1ccc2nc(N)[nH]c(=O)c2c1Sc1ccncc1,-19%,.
Cn1c(=O)c2c(ncn2CCO)n(C)c1=O,1%,.
NS(=O)(=O)c1cc(-c2nn[nH]n2)c(NCc2cccs2)cc1Cl,13%,.
CCCOC(=O)c1ccc(O)cc1,36%[activator][116 µM],.
CC(=O)Nc1ccccc1,3%,.
CC(=O)Nc1ccc(O)cc1,-3%&-5%,.
COc1ccccc1OCCNCC(O)COc1cccc2[nH]c3ccccc3c12 (stereo not drawn),-9%&-26%,.
Cc1ccccc1C(=O)Nc1cccc(-c2nc3cccnc3s2)c1,-13%,-20%
COc1cc([C@H]2Oc3cc([C@H]4Oc5cc(O)cc(O)c5C(=O)[C@H]4O)ccc3O[C@H]2CO)ccc1O,-15%,.
C=C1c2cccc(O)c2C(O)=C2C(=O)[C@]3(O)C(O)=C(C(N)=O)C(=O)[C@@H](N(C)C)[C@@H]3[C@@H](O)[C@H]12,-6%,.
CN[C@@H]1CN(c2ccc3c(=O)c(C(=O)O)cn(-c4nccs4)c3n2)C[C@@H]1OC,?,.
CCCCCCCCCCCCCCCC(=O)O,-4%,.

# Compound activity (PubChem)
